From PubChem
E coli growth: blocks Escherichia coli growth; OD600, 23 h; hits give low values; OD600 absorbance (no concentration beside the values); 330,000 tested, 0.21% active; AID 1053175;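 active = OD600 absorbance below the run mean of sample wells minus 3.6 SD, in any replicate, cut at about 0.56 in these data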;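 note: stock transfer was 300 nL into about 60 µL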
UCH37 inh: human UCH37 deubiquitinating enzyme inhibition; purified proteasome/UCH37, Ub-AMC cleavage fluorescence; inhibition, % (concentration not given with the values); 330,000 tested, 0.33% active; AID 588478;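 active = mean of two replicates above 20%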;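 note: 0% = compound-free wells with enzyme and 100% = wells lacking proteasome; stock transfer was 100 nL into about 20 µL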
Target sequence (Q9Y5K5 whole entry, looked up): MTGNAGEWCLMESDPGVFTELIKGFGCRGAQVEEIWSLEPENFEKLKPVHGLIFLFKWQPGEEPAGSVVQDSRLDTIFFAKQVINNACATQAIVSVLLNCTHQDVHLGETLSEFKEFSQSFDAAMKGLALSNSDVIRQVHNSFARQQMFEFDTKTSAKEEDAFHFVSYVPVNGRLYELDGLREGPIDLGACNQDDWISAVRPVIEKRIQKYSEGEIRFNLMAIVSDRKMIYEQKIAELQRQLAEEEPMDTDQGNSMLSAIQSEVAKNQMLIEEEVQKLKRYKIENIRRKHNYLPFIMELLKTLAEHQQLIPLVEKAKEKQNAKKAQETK
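system = Proteasome-associated human UCH37 deubiquitinase | amount = 0.15 nM proteasome as dispensed | medium = pH 7.4 Tris-HCl (50 mM) with ovalbumin, ATP-MgCl2, DTT | incubation = 30 min preincubation with enzyme, 25 min cleavage at room temperature | detection = AMC fluorescence 355/460 nm | read-out basis = percent inhibition | controls = no-proteasome and no-compound wells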
Starred values were filed as active, the others as inactive. Some of the compounds tested; rates above refer to the full screens.

SMILES	E coli growth	UCH37 inh
COC(=O)NN=C(C)c1ccccc1OC(F)F	0.7	3.0
Oc1ccccc1C=NNc1ncc(Br)cn1	0.7	0.7
Cc1ccc(S(=O)(=O)N=Cc2ccco2)cc1	0.71	1.9
CCn1c(SCC(=O)NN=C(C)c2ccco2)nnc1-c1ccccc1	0.7	1.5
O=C(CNS(=O)(=O)c1ccc([N+](=O)[O-])cc1)NN=Cc1ccc(O)cc1O	0.7	4.1
Cc1cc(=O)[nH]c(N=C(N)Nc2ccc(SC(F)F)cc2)n1	0.66	-1.6
CC(=NNc1cc(N2CCOCC2)ncn1)c1ccccc1	0.62	2.9
O=C(NN=Cc1cccc([N+](=O)[O-])c1)c1cc2c(ccc3ccccc32)o1	0.76	1.6
O=C(NN=Cc1ccccc1[N+](=O)[O-])c1cnccn1	0.65	7.0
O=C(NN=C/C=C/c1ccccc1)C1CC1(c1ccccc1)c1ccccc1 (stereo unspecified)	0.74	4.5

2 compounds drawn at random from the list so far:
SMILES	E coli growth	UCH37 inh
O=C(NN=Cc1ccccc1[N+](=O)[O-])c1cnccn1	0.65	7.0
CCn1c(SCC(=O)NN=C(C)c2ccco2)nnc1-c1ccccc1	0.7	1.5

Additional records:
SMILES	E coli growth	UCH37 inh
COc1cccc(C=NNC(=O)C(C)Cn2cnc3ccccc32)c1 (stereo unspecified)	0.65	4.5
Cc1cc(C(=O)NN=C2CCCC(=O)C2)c(C)n1-c1ccccc1	0.7	1.4
CC(C)C(NC(=O)C12CC3CC(CC(C3)C1)C2)C(=O)NN=CC1=C(N2CCOCC2)/C(=C\c2cccc([N+](=O)[O-])c2)CC1 (stereo unspecified)	0.72	6.0
C(=NNc1nc2ccccc2[nH]1)c1ccncc1	0.68	13
O=C(NN=C1CCSC1)c1cc(Cl)ccc1O	0.66	-96
COc1ccc(Br)cc1C=NNC(=O)Cn1nnnc1N	0.69	7.1
O=C(NN=Cc1ccc([N+](=O)[O-])s1)c1cncc(Br)c1	0.67	9.4
O=C(CNC(=O)c1cccc(F)c1)NN=Cc1cc(Br)ccc1OCc1ccccc1	0.75	1.0
Cc1ccc(NC(=S)NN=Cc2c(C)[nH]c3ccccc23)cc1	0.72	5.4
C=CCNC(=O)CC(=O)NN=Cc1cccc(C)c1	0.65	-1.3
COC(=O)NN=Cc1c(C)nn(-c2cccc(Cl)c2)c1Cl	0.69	1.1
C/C(C=Nn1c(-c2ccncc2)n[nH]c1=S)=C/c1ccccc1	0.67	6.7
O=C(NN=Cc1ccc2c(c1)OCO2)c1ccn(Cc2ccc(Cl)cc2)n1	0.72	3.5
Cc1ccc(C=Nc2sc3c(c2C#N)CCC3)s1	0.81	1.6
CC(=O)c1ccc(N2Cc3ccccc3C2=NC(=O)Nc2ccc(Cl)cc2)cc1	0.75	-58
CC(Oc1ccc(C(C)(C)C)cc1)c1ccnc2nc(N=CN(C)C)nn12 (stereo unspecified)	0.72	-58
C=C(C)C1CC=C(C)C(=NNC(=O)c2ccoc2C)C1 (stereo unspecified)	0.69	2.1
Cc1c(C(=O)NN=Cc2cccc(O)c2)nnn1-c1nonc1N	0.72	6.3
CC(C)=CCCC1=CCC(C(C)=NNC(N)=O)CC1 (stereo unspecified)	0.68	11
CCOC(=O)CCC(C)=NN=C1SC(CC(=O)O)C(=O)N1c1ccccc1 (stereo unspecified)	0.71	2.4
Cc1ccsc1C=NNC(=O)c1ccc2nc[nH]c2c1	0.7	10
O=[N+]([O-])c1cc(C=NO)ccc1Oc1cccc(Cl)c1	0.68	5.5
CCOC(=O)C(C#N)=NNc1c(S(=O)(=O)Cc2ccco2)csc1C(=O)OC	0.58	8.5
Cc1ccc(S(=O)(=O)N=C(c2ccc(F)cc2)N2CCOCC2)cc1	0.71	-0.9
N#CCC(=O)NN=Cc1cn(Cc2ccccc2C#N)c2ccccc12	0.69	6.0
COc1ccc(C=NNC(=O)c2ccccc2OC)cc1COc1ccc(C)cc1	0.65	-2.0
Oc1ccccc1C=NNC1=NCCCCC1	0.66	-55
O=C(COc1ccc(Cl)cc1Cl)NN=CC1CC=CCC1 (stereo unspecified)	0.71	-0.8
Cc1cc(C(=O)NN=Cc2ccc([N+](=O)[O-])cc2)c(C)o1	0.62	5.0
CN(C)c1ccc(C=NNC(=O)CNC(=O)c2ccncc2)cc1	0.74	-42
COc1ccc(/C=C/C(=O)Oc2cccc(C=NNC(=O)c3cccc(F)c3)c2)cc1	0.69	1.4
CC(C)c1ccc(C=NNC(=O)c2ccccn2)cc1	0.65	4.3
COc1ccc2ccccc2c1C=NNC(=O)c1cccc(Br)c1	0.68	-4.9
NC(=S)NN=Cc1ccc(-c2ccc(Cl)c(Cl)c2)o1	0.71	-3.0
COc1cc(C=NNC(=O)OC(C)(C)C)ccc1OC(=O)c1ccco1	0.66	4.5
CCOC(=O)C(=NO)C(C)=NNC(C)=O	0.66	-1.8
Br/C(C=NN1CCN(c2ccccn2)CC1)=C\c1ccccc1	0.72	-0.8
CCOc1cc(C=NNC(=O)c2ccncc2)ccc1OS(C)(=O)=O	0.69	0.3
Cc1ccc(-n2c(C)cc(C=c3sc4nc5ccccc5n4c3=O)c2C)cc1	0.71	-1.8
Cc1ccc(C=NNC(=O)Cn2nc(C)c(Br)c2C)o1	0.69	5.7
CC(=NNC1=NCCN1)c1ccccc1	0.68	4.0
CC(=O)Nc1cccc(C(C)=NNC(=O)c2ccc3c(c2)OCO3)c1	0.67	2.4
CC(=NNC(=O)c1ccc(Br)o1)c1cccs1	0.69	5.8
O=C(/C=C/c1ccccc1)NCC(=O)NN=Cc1ccco1	0.68	-0.4
CC(=NNC(=O)c1ccccc1O)C1CC1	0.7	-101
Cc1ccc(C=NNC(=O)c2nnn(-c3nonc3N)c2CN(C)C)s1	0.7	4.1
Cc1ccc(C=NNC(=O)Cc2ccc(Cl)cc2)s1	0.74	-2.6
CCOc1cc(C=NNC(=O)Cn2nc([N+](=O)[O-])cc2C)ccc1OCc1cccc2ccccc12	0.75	0.2
COc1ccc(C=Nn2cnc3scc(-c4cccs4)c3c2=O)cc1OC	0.66	-24
COc1cc(C=NNC(=O)CNC(=O)c2ccco2)ccc1O	0.67	1.8

One compound at a time, from the list above. Values in the order: E coli growth, UCH37 inh
Cc1ccc(S(=O)(=O)N=C(c2ccc(F)cc2)N2CCOCC2)cc1 is entered as 0.71, -0.9
Cc1ccc(C=NNC(=O)Cn2nc(C)c(Br)c2C)o1 is entered as 0.69, 5.7

The results go on:
SMILES	E coli growth	UCH37 inh
CC(=NNC(=O)c1ccc(N(C)C)cc1)c1ccc(C)cc1C	0.68	7.1
COc1cc(NN=Cc2ccc(N(C)C)cc2)ncn1	0.67	-72
CC1=NNC(=O)C1CC(=O)NN=C/C(Br)=C/c1ccccc1 (stereo unspecified)	0.62	5.6
CC(=NNC(=O)c1cc(C)oc1C)c1ccc2ccccc2c1	0.66	-1.8
O=C1CC(c2ccccc2)CC(=NCCO)/C1=C(/O)CCCN1C(=O)c2ccccc2C1=O (stereo unspecified)	0.71	0.0
CC(=NNc1nc(N)cc(Cl)n1)c1cccc([N+](=O)[O-])c1	0.65	7.0
CCc1cccc(C)c1NC(=O)CON=C(C)c1cc2ccccc2o1	0.68	4.2
COc1ccc(C=NOCC(=O)N(Cc2ccc(OC)cc2)c2ccccc2C(=O)O)cc1	0.72	-0.4
CCn1c(Cl)c(C=O)sc1=NS(=O)(=O)c1ccccc1	0.7	3.3
CN(C)c1nc(NN=Cc2c[nH]c3ccccc23)nc(N2CCOCC2)n1	0.65	5.6
CON=Cc1ccc(N2CCN(C(=O)c3cccc(Cl)c3)CC2)c([N+](=O)[O-])c1	0.73	5.1
Cn1c(=O)c2c(nc(NN=Cc3ccco3)n2C)n(C)c1=O	0.69	13
Cc1c(N=C(N)N=C(N)Nc2ccc(Br)cc2)c(=O)n(-c2ccccc2)n1C	0.64	2.7
CCc1ccc(C=NNC(=O)c2nnn(-c3nonc3N)c2CN2CCOCC2)cc1	0.7	3.6
C(=NNCc1ccccc1)c1ccc2ncccc2c1	0.66	7.9
COc1cc(C=NN(C)c2ccccc2)ccc1O	0.69	5.8
CCCCN(CCCC)C(=S)NN=Cc1c(C)[nH]n(-c2ccccc2)c1=O	0.84	-1.3
Cc1cccc(C)c1NC(=O)COc1cccc(C=NNC(=O)C(=O)NCc2ccccc2)c1	0.75	2.7
COc1ccc(C=NNC(=O)c2nnn(-c3nonc3N)c2-c2cccc(OC)c2)cc1	0.68	-6.6
CCOc1cc(C=NNC(=O)C2CC2)ccc1OC(C)C	0.65	2.8

A portion from the list above, for reference:
SMILES	E coli growth	UCH37 inh
CON=Cc1ccc(N2CCN(C(=O)c3cccc(Cl)c3)CC2)c([N+](=O)[O-])c1	0.73	5.1
Cn1c(=O)c2c(nc(NN=Cc3ccco3)n2C)n(C)c1=O	0.69	13
Cc1c(N=C(N)N=C(N)Nc2ccc(Br)cc2)c(=O)n(-c2ccccc2)n1C	0.64	2.7

Next section.
SMILES	E coli growth	UCH37 inh
CC(=O)Nc1sc(NN=Cc2ccccc2)nc1-c1ccc(C)cc1	0.63	-4.3
COc1ccccc1C=NN=C(N)c1ccccn1	0.69	7.5
CCCCCCCC(=O)NN=Cc1ccncc1	0.67	4.2
Cc1ccc(C=NOC(=O)c2c(C)noc2-c2snnc2C)cc1	0.65	6.5
Cc1ccc(COc2ccccc2-c2cc(C(=O)NN=Cc3cccnc3)[nH]n2)cc1	0.66	1.9
O=C(O)c1cccc(-c2ccc(C=Nn3cnnc3)o2)c1	0.7	-3.4
CCOc1cc(C=NNC(=O)C2CCCC2)ccc1O	0.7	-0.8
CCOc1ccc(C=NNC(=O)Cc2cccs2)cc1	0.66	5.3
Oc1ccc(Br)cc1C=Nn1c(C2CCCCC2)n[nH]c1=S	0.63	2.5
Cc1ccccc1C=NNC(=O)CSc1nc2ccccc2o1	0.71	-1.1
Cc1ccc2occ(C=NNC(=O)c3ccncc3)c(=O)c2c1	0.66	-73
CC(=NNC(=O)c1ccc(-c2ccccc2)cc1)c1ccco1	0.7	-5.1
CCOc1ccccc1C=NNC(=O)c1c(C)nc2ccc(Br)cn12	0.7	4.6
Cc1ccc(C=NNC(=O)c2n[nH]c3c2CCCC3)cc1	0.68	2.0
Cc1ccccc1C(=O)ON=C1CCS(=O)(=O)c2sccc21	0.71	1.9
CC(=NNc1ccccn1)c1cccs1	0.64	8.2
COc1cc(C=NNC(=O)c2cccnc2)ccc1OC(=O)c1ccc2c(c1)OCO2	0.74	-5.8
CN(C)c1ccc(C=NNC(=O)c2ccc(CN3CCOCC3)cc2)cc1Br	0.67	5.7
COc1ccc(/C=C\C(=O)Oc2cccc(C=NNC(=O)Cc3ccc(OC)c(OC)c3)c2)cc1	0.69	-0.2
O=C(C[n+]1ccccc1)NN=Cc1ccc(Br)cc1	0.64	3.7
Cc1ccc(-n2c(C)cc(C=NNC(N)=S)c2C)cc1	0.7	2.8
CC(CC(=O)NC(C)C)=NNC(=O)C(c1ccccc1)c1ccccc1	0.71	3.9
CC12C(=NO)C3C4CC5C3C(=NO)C1C5C42 (stereo unspecified)	0.69	1.1
CC(=NNC(=O)c1ccccn1)c1ccc(C(=O)O)s1	0.66	12
C(=NNc1nncc2ccccc12)c1ccccc1	0.69	-3.3
CCNC(=S)NN=Cc1ccc(C#N)cc1	0.66	6.9
COc1ccc(CCNC(=O)CC(C)=NNC(=O)C2CCCCC2)cc1OC	0.68	4.4
COc1cccc(C=NNC(=O)CNC(=O)COc2cccc(C)c2)c1O	0.7	5.2
Clc1cncc(Cl)c1NN=Cc1ccncc1	0.64	8.1
O=C(NN=Cc1ccc2c(c1)OCO2)c1ccc2ccccc2n1	0.67	0.1

Grouped by structure, the entries above containing a cyano group
SMILES	E coli growth	UCH37 inh
Cc1ccc(C=Nc2sc3c(c2C#N)CCC3)s1	0.81	1.6
CCOC(=O)C(C#N)=NNc1c(S(=O)(=O)Cc2ccco2)csc1C(=O)OC	0.58	8.5
N#CCC(=O)NN=Cc1cn(Cc2ccccc2C#N)c2ccccc12	0.69	6.0
CCNC(=S)NN=Cc1ccc(C#N)cc1	0.66	6.9

(more compounds)
SMILES	E coli growth	UCH37 inh
COc1ccc(-c2cnnc(NN=Cc3c(C)nn(-c4ccccc4)c3Cl)n2)cc1	0.69	4.9
CCN(CC)c1ccc(C=NN2CCN(Cc3ccc(C)cc3)CC2)c(O)c1	0.72	2.3
COc1cc(C(=O)NN=Cc2ccccc2)c([N+](=O)[O-])c(OC)c1OC	0.67	1.2
CC(=NNC(=O)C(N)=O)c1ccc(Br)cc1	0.64	0.1
CC(=NOC(=O)c1ccc(C(F)(F)F)cc1)c1oc(C)nc1C	0.66	4.7
COc1ccc(C=NNS(=O)(=O)c2ccccc2)cc1OC(=O)c1ccc(C)cc1	0.68	1.9
Cc1cc(-c2onc(C)c2C(=O)NN=Cc2ccccc2)no1	0.65	5.4
CC(=NNc1ncc(Cl)cc1Cl)c1ccc(S(=O)(=O)NCc2ccco2)cc1	0.73	7.5
CC(CC(=O)NCc1ccco1)=NNC(=O)c1ccc(Cl)cc1Cl	0.62	2.0
O=C(ON=C1CCCCC1c1ccc([N+](=O)[O-])cc1[N+](=O)[O-])c1c(F)cccc1F (stereo unspecified)	0.68	0.4
Cc1cccc(C(=O)ON=C(c2ccccc2)c2ccncc2)c1	0.68	3.6
CC(=NNC(=O)c1ccc(C)s1)c1ccncc1	0.69	4.3
O=C(O)CC1NC(=O)N(c2ccccc2)C1=O (stereo unspecified)	0.67	5.2
Cc1cc(C)c(NC(=O)CON=C2CCCc3nonc32)c(C)c1	0.7	5.1
COc1ccc(C(C)=NNC(=O)CNC(=O)COc2ccccc2)c(OC)c1	0.62	1.0
